Bioassay records: PubChem BioAssay, Johns Hopkins Ion Channel Center
KCNQ2 pot: potentiators of rat KCNQ2 potassium channel; O88943; CHO-K1 KCNQ2, FluxOR thallium flux fluorescence; active compounds read high; B-score at 10 µM; actives 0.54% (n = 310,000);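 active = fluorescence ratio B-score at least 3 SD of library B-scores, with initial fluorescence B-score within 3 SD, cut at about 5.3 in these data; same plate scores as AID 2156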;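 note: B-score of peak minus minimum over baseline fluorescence ratio after K+ and Tl+ stimulus; positive B-score means potentiation of KCNQ2 with more thallium influx and brighter signal; only the inactives scoring about 0 or higher are listed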
Target sequence (O88943 whole entry, looked up): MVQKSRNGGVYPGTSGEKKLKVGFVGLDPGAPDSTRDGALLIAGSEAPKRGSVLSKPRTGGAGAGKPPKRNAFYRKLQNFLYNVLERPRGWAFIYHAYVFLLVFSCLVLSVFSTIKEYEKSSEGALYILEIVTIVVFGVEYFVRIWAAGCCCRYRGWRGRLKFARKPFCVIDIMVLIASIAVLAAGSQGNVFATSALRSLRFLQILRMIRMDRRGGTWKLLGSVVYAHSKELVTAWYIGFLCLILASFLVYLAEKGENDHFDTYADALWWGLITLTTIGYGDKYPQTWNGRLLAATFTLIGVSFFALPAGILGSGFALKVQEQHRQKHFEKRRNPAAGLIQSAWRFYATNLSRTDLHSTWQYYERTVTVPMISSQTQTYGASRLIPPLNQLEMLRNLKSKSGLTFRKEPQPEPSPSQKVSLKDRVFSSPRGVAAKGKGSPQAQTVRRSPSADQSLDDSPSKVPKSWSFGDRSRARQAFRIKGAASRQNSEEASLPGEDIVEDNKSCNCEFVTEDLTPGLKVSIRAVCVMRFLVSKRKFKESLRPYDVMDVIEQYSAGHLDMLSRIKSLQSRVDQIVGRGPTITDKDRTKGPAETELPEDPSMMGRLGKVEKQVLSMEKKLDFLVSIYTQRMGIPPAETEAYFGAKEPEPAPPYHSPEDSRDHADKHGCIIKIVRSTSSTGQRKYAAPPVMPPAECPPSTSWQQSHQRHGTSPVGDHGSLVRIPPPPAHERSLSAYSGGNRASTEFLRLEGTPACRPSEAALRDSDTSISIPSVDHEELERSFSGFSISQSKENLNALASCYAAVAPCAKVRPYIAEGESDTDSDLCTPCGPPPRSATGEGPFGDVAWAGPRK
KCNQ2 pot baseline: second read-out of KCNQ2 pot, no call of its own (marks repeat the call); B-score; compound at 10 µM; measured here: initial fluorescence intensity artifact check;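 brightness before thallium and not channel activity; 0 = typical well and far values either way flag optical interference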
* = called active by the depositor. The list is partial. The share of hits here may be higher or lower than overall.

Screening Cc1ccc(N(C(=O)CNC(=O)c2cccs2)C(C(=O)NC2CCCC2)c2ccncc2)cc1 (stereo not given) returned KCNQ2 pot 1.19 and KCNQ2 pot baseline 0.53.
O=C(Nc1cccc(-c2ccc3nncn3n2)c1)C(F)(F)F was read as KCNQ2 pot 1.75 and KCNQ2 pot baseline -0.57.
Screening COc1cc(NC(=O)c2cc(C)nc3ccccc23)cc(OC)c1 returned KCNQ2 pot 1.29 and KCNQ2 pot baseline -0.04.
Screening O=C(N1CCOCC1)C12CCC3CC(CC(C3)C1)C2 returned KCNQ2 pot 0.07 and KCNQ2 pot baseline 1.31.
CCOc1ccc(Cn2c3ccc(OC)cc3c3nc4ccccc4nc32)cc1 was read as KCNQ2 pot 0.56 and KCNQ2 pot baseline 0.23.
Screening CCc1ccccc1-n1c(-c2ccncc2)n[nH]c1=S returned KCNQ2 pot 0.28 and KCNQ2 pot baseline -0.44.
Screening O=C(NCCN1CCCCC1)c1ccc(=O)oc1 returned KCNQ2 pot 0.38 and KCNQ2 pot baseline -0.08.
Screening COc1ccc(S(=O)(=O)N(Cc2ccco2)Cc2cc3ccccc3[nH]c2=O)cc1 returned KCNQ2 pot 0.96 and KCNQ2 pot baseline -0.96.
For Cc1cc(OCCCN2CCN(Cc3ccccc3)CC2)ccc1[N+](=O)[O-] the results were KCNQ2 pot 0.6 and KCNQ2 pot baseline -2.87.
For CC(=O)CSc1ccc(-c2nc3cc(C)c(C)cc3[nH]2)cn1 the results were KCNQ2 pot 3.2 and KCNQ2 pot baseline -1.95.
Screening C=CCOc1ccccc1/C=N/n1nnnc1N returned KCNQ2 pot 0.99 and KCNQ2 pot baseline -0.48.
`O=C(CSc1ccc2c(c1)OCCO2)Nc1cccc(S(=O)(=O)N2CCCCC2)c1` gave KCNQ2 pot 0.52 and KCNQ2 pot baseline 0.69.
Screening O=C(Nc1ccc(-c2noc(COc3ccccc3Cl)n2)cc1)c1ccco1 returned KCNQ2 pot 1.2 and KCNQ2 pot baseline 1.83.
`CC(/C=N/n1c(-c2ccco2)n[nH]c1=S)=C\c1ccco1` gave KCNQ2 pot 1.7 and KCNQ2 pot baseline 0.32.
For Cc1cc(C)nc(NC(C)(C)C(=O)O)n1 the results were KCNQ2 pot 0.15 and KCNQ2 pot baseline -0.56.
Cc1nnc(SCC(=O)N2CCOCC2)c2ccccc12 was read as KCNQ2 pot 0.79 and KCNQ2 pot baseline -0.34.
O=C(CC(C(=O)O)c1ccccc1)Nc1cccc2ccccc12 (stereo not given) was read as KCNQ2 pot 0.16 and KCNQ2 pot baseline -0.7.
`Cc1cc(C)cc(SCc2noc(C(=O)NCC3CCCO3)c2C(=O)O)c1` (stereo not given) gave KCNQ2 pot 0.08 and KCNQ2 pot baseline -0.62.
Screening COc1cc(NC(=O)Nc2ccc3c(c2)OCO3)cc(OC)c1OC returned KCNQ2 pot 0.7 and KCNQ2 pot baseline -0.83.
For Cc1ccsc1C(=O)N1CCCC(C(=O)c2cc(F)ccc2F)C1 (stereo not given) the results were KCNQ2 pot 0.75 and KCNQ2 pot baseline -0.59.
For Nc1nc(SCC(=O)Nc2cccc(S(=O)(=O)N3CCCCCC3)c2)n[nH]1 the results were KCNQ2 pot 1.89 and KCNQ2 pot baseline -1.13.
Screening Cc1c(C(=O)Nc2cnccn2)oc2ccccc12 returned KCNQ2 pot 0.03 and KCNQ2 pot baseline -1.83.
For CCOc1ccc2c(c1)C(NC(C)=O)C(=O)N2CCN1CCOCC1 (stereo not given) the results were KCNQ2 pot 0.11 and KCNQ2 pot baseline 0.94.
Cc1cc(C)n(C(C)CC(=O)Nc2ccc3c(c2)OCO3)n1 (stereo not given) was read as KCNQ2 pot 1.28 and KCNQ2 pot baseline -0.58.
For O=C(O)CCCNc1ccc(S(=O)(=O)N2CCCCC2)cc1 the results were KCNQ2 pot 1 and KCNQ2 pot baseline -0.34.
`Cc1ccc(-c2nn(CC(=O)NCc3ccccn3)c(=O)c3ccccc23)cc1S(=O)(=O)N(C)C` gave KCNQ2 pot 1.69 and KCNQ2 pot baseline 0.
`C/C(=N/NC(=O)c1ccc(Cl)s1)c1ccc(NC(=O)COc2ccc(Cl)cc2)cc1` gave KCNQ2 pot 1.34 and KCNQ2 pot baseline -0.68.
For CC(C)NC(=O)COCc1cc(-c2ccc3c(c2)OCO3)on1 the results were KCNQ2 pot 1.07 and KCNQ2 pot baseline -1.62.
For COCCn1c(SCC(=O)Nc2cc(OC)ccc2OC)nc2c(c1=O)SC(C)C2 (stereo not given) the results were KCNQ2 pot 1.16 and KCNQ2 pot baseline 0.58.
For NS(=O)(=O)c1ccc(CCNC(=O)C(=O)c2c[nH]c3ccccc23)cc1 the results were KCNQ2 pot 0.84 and KCNQ2 pot baseline 0.06.
Screening COc1cc(OC)c(C2C(C#N)=C(N)OC3=C2C(=O)CC(C)(C)C3)cc1OC (stereo not given) returned KCNQ2 pot 1.1 and KCNQ2 pot baseline 1.12.
Screening CC(C)(C)SC(=O)CC1NS(=O)(=O)OCC1NC(=O)OCC(Cl)(Cl)Cl (stereo not given) returned KCNQ2 pot 0.26 and KCNQ2 pot baseline 0.39.
For CCC1(c2ccccc2)NC(=O)N(CC(=O)c2ccc3c(c2)OCO3)C1=O (stereo not given) the results were KCNQ2 pot 0.01 and KCNQ2 pot baseline -1.83.
Screening Cc1ccc(NC(=O)NNC(=O)C2CC(c3cccnc3)=NO2)cc1 (stereo not given) returned KCNQ2 pot 1.91 and KCNQ2 pot baseline -1.33.
COc1ccc(NC(=O)N2CCN(c3cccc(C(F)(F)F)c3)CC2)cc1OC was read as KCNQ2 pot 0.91 and KCNQ2 pot baseline -0.07.
Screening COC(=O)C1=C(C)N(c2ccc(OC)c(OC)c2)C(=O)/C1=C\c1ccco1 returned KCNQ2 pot 0.96 and KCNQ2 pot baseline -0.4.
`COc1ccc(N2CCN(S(=O)(=O)c3cc4c(cc3C)N(C(C)=O)CCO4)CC2)cc1` gave KCNQ2 pot 1.43 and KCNQ2 pot baseline -0.52.
COc1ccc(Nc2nc3ccccc3nc2C)cc1 was read as KCNQ2 pot 0.59 and KCNQ2 pot baseline -1.15.
Screening CCNC(=S)N/N=C/c1c(C)nn(-c2cccc(Cl)c2)c1Cl returned KCNQ2 pot 0.34 and KCNQ2 pot baseline -0.15.
`O=C(Nc1nc(-c2nc3ccccc3s2)cs1)C1CC1` gave KCNQ2 pot 0.79 and KCNQ2 pot baseline 2.75.
Screening O=[N+]([O-])c1ccccc1-n1cnc2ccccc21 returned KCNQ2 pot 0.98 and KCNQ2 pot baseline -0.28.
Screening CCSc1nnc(NC(=O)c2nc(-c3ccccc3)n(-c3ccccc3)n2)s1 returned KCNQ2 pot 1.39 and KCNQ2 pot baseline 0.02.
Screening CCN(CC)C(=O)C1CCC(C)(C(=O)O)C1(C)C (stereo not given) returned KCNQ2 pot 0.26 and KCNQ2 pot baseline 0.74.
`O=C(c1cccc(Br)c1)N1CCN(C(=O)N2CCOCC2)CC1` gave KCNQ2 pot 1.79 and KCNQ2 pot baseline -0.78.
`CS(=O)(=O)Nc1ccccc1C(=O)Nc1cccc(Cl)c1` gave KCNQ2 pot 0.37 and KCNQ2 pot baseline -0.19.
Screening NC(=O)c1ccccc1NC(=O)CC12CC3CC(CC(C3)C1)C2 returned KCNQ2 pot 2.79 and KCNQ2 pot baseline 0.72.
`CC(=O)N(c1ccc(Cl)cc1)c1c[nH]c2ccccc12` gave KCNQ2 pot 3.41 and KCNQ2 pot baseline -0.55.
For COc1ccccc1CNC(=O)CCNC(=O)Cn1cnc2ccccc2c1=O the results were KCNQ2 pot 1.22 and KCNQ2 pot baseline -1.42.
Screening COc1cccc(OC)c1C(=O)Nc1cccc(NC(=O)c2cccs2)c1 returned KCNQ2 pot 0.68 and KCNQ2 pot baseline -1.67.
For O=S(=O)(Oc1ccccc1)c1cccnc1 the results were KCNQ2 pot 0.97 and KCNQ2 pot baseline -0.6.
C=CCn1c(SCC(=O)NC2CCS(=O)(=O)C2)nc2sc(CC)cc2c1=O (stereo not given) was read as KCNQ2 pot 0.38 and KCNQ2 pot baseline -1.7.
`CC(=O)Nc1ccc(S(=O)(=O)N2CCNC(=O)CC2)cc1` gave KCNQ2 pot 1.48 and KCNQ2 pot baseline -0.31.
Cc1ccccc1C(=O)Nc1ccc(S(=O)(=O)N2CC(C)OC(C)C2)cc1 (stereo not given) was read as KCNQ2 pot 0.86 and KCNQ2 pot baseline 0.52.
`CN(C)C(=O)c1cc(C(=O)c2c(F)cccc2F)c[nH]1` gave KCNQ2 pot 0.85 and KCNQ2 pot baseline -0.39.
`CN(Cc1ccccc1)C(=O)c1ccc([N+](=O)[O-])o1` gave KCNQ2 pot 0.22 and KCNQ2 pot baseline 0.54.
For CCCc1cc(=O)[nH]c(SCC(=O)c2cc(C)n(C)c2C)n1 the results were KCNQ2 pot 0.39 and KCNQ2 pot baseline -1.15.
For CCCNC1=CC(=O)CC(C)(C)C1 the results were KCNQ2 pot 0.04 and KCNQ2 pot baseline 1.87.
For CC1CN(CCS(=O)(=O)c2cc(Cl)ccc2Cl)CC(C)O1 (stereo not given) the results were KCNQ2 pot 1.02 and KCNQ2 pot baseline -0.05.
O=C(CCl)NN1C(=O)NC2(CCCCC2)C1=O was read as KCNQ2 pot 0.88 and KCNQ2 pot baseline -2.25.
`COC(=O)Oc1ccc(/C=C/C(=O)OC(C)C)cc1OC(=O)OC` gave KCNQ2 pot 0.74 and KCNQ2 pot baseline -0.73.
Screening c1ccc(-n2nnnc2N2CCOCC2)cc1 returned KCNQ2 pot 1.44 and KCNQ2 pot baseline -0.67.
`COc1ccccc1CNC(=O)CNC(=O)N1CC(=O)Nc2ccccc21` gave KCNQ2 pot 0.14 and KCNQ2 pot baseline -1.77.
`CC(C)CNC(=O)c1c(N)n(/N=C/c2ccccn2)c2nc3ccccc3nc12` gave KCNQ2 pot 0.53 and KCNQ2 pot baseline -1.21.
For CCC(=O)Nc1c(C)cc(C)cc1Cl the results were KCNQ2 pot 1.21 and KCNQ2 pot baseline 0.06.
`CC1C(=O)Nc2ccc(S(=O)(=O)N3CCN(c4cccc(Cl)c4)CC3)cc2NC1=O` (stereo not given) gave KCNQ2 pot 1.33 and KCNQ2 pot baseline -0.01.
`O=C(O)CC1c2ccccc2CCN1S(=O)(=O)c1ccccc1` (stereo not given) gave KCNQ2 pot 0.34 and KCNQ2 pot baseline -1.65.
COc1ccccc1CCC(=O)Nc1ccc(S(=O)(=O)Nc2cc(C)nc(C)n2)cc1 was read as KCNQ2 pot 1.13 and KCNQ2 pot baseline -1.94.
For Cc1ccccc1N=C1NC(=O)CS1 the results were KCNQ2 pot 0.86 and KCNQ2 pot baseline -1.15.
For COc1ccc(C(c2c(C)n(C)n(-c3ccccc3)c2=O)c2c(C)n(C)n(-c3ccccc3)c2=O)cc1O the results were KCNQ2 pot 0.55 and KCNQ2 pot baseline -0.37.
For Cc1ccccc1C(=O)c1cccn1CC(=O)NCC(C)c1ccccc1 (stereo not given) the results were KCNQ2 pot 0.69 and KCNQ2 pot baseline 1.14.
For COc1ccc(NC(=O)COC(=O)C2CCN(S(=O)(=O)c3ccccc3)CC2)cc1Cl the results were KCNQ2 pot 0.29 and KCNQ2 pot baseline -1.44.
`COCCOc1ccc(C(F)(F)F)cc1NC(=O)CN1C(=O)NC(C)(c2ccc3c(c2)OCO3)C1=O` (stereo not given) gave KCNQ2 pot 1.31 and KCNQ2 pot baseline 0.05.
O=S(=O)(NCC1CCN(c2ccc(S(=O)(=O)N3CCOCC3)cc2)CC1)c1ccccc1 was read as KCNQ2 pot 0.55 and KCNQ2 pot baseline 0.75.
`CCCOc1ccc(C(=O)N2CC3(CC(c4cccc(NC(=O)[C@@H]5CCC(=O)N5)c4)=NO3)C[C@H]2C(=O)NC2(C(N)=O)CC2)cc1` (stereo not given in full) gave KCNQ2 pot 0.22 and KCNQ2 pot baseline 1.53.
Screening CC(OC(=O)CN1C(=O)NC2(CCCC2)C1=O)C(=O)Nc1cccc(Cl)c1Cl (stereo not given) returned KCNQ2 pot 0.36 and KCNQ2 pot baseline 0.29.
For O=C1C2C3c4ccccc4C(c4ccccc43)[C@@H]2c2nc3ccccc3n21 (stereo not given in full) the results were KCNQ2 pot 0.46 and KCNQ2 pot baseline -0.07.
Cc1oc2c(c(C)cc3oc(=O)c(CC(=O)N[C@@H](CCCNC(N)=O)C(=O)O)c(C)c32)c1C was read as KCNQ2 pot 0.08 and KCNQ2 pot baseline -0.11.

Structural class, those above with an aryl thioether with sulfur outside any ring
For CC(=O)CSc1ccc(-c2nc3cc(C)c(C)cc3[nH]2)cn1 the results were KCNQ2 pot 3.2 and KCNQ2 pot baseline -1.95.
`O=C(CSc1ccc2c(c1)OCCO2)Nc1cccc(S(=O)(=O)N2CCCCC2)c1` gave KCNQ2 pot 0.52 and KCNQ2 pot baseline 0.69.
Cc1nnc(SCC(=O)N2CCOCC2)c2ccccc12 was read as KCNQ2 pot 0.79 and KCNQ2 pot baseline -0.34.
`Cc1cc(C)cc(SCc2noc(C(=O)NCC3CCCO3)c2C(=O)O)c1` (stereo not given) gave KCNQ2 pot 0.08 and KCNQ2 pot baseline -0.62.
For Nc1nc(SCC(=O)Nc2cccc(S(=O)(=O)N3CCCCCC3)c2)n[nH]1 the results were KCNQ2 pot 1.89 and KCNQ2 pot baseline -1.13.
For COCCn1c(SCC(=O)Nc2cc(OC)ccc2OC)nc2c(c1=O)SC(C)C2 (stereo not given) the results were KCNQ2 pot 1.16 and KCNQ2 pot baseline 0.58.
Screening CCSc1nnc(NC(=O)c2nc(-c3ccccc3)n(-c3ccccc3)n2)s1 returned KCNQ2 pot 1.39 and KCNQ2 pot baseline 0.02.
C=CCn1c(SCC(=O)NC2CCS(=O)(=O)C2)nc2sc(CC)cc2c1=O (stereo not given) was read as KCNQ2 pot 0.38 and KCNQ2 pot baseline -1.7.
For CCCc1cc(=O)[nH]c(SCC(=O)c2cc(C)n(C)c2C)n1 the results were KCNQ2 pot 0.39 and KCNQ2 pot baseline -1.15.
